# Bioassay records as filed in PubChem.
# MT1-MMP promoter: inhibitors of MT1-MMP promoter transcription, cell-based, luciferase reporter, luminescence (AID 618); actives 0.62% (n = 87,000); calls from a first round at 10 µM; hits with a dose series show EC50 in µM; MT1-MMP promoter luciferase reporter cells, luminescence;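 active = over half of the reporter light lost at 10 µM or EC50 under 50 µM; inactive = the rest and hits that failed the dose series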;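 note: actives suppress MT1-MMP promoter-driven transcription so potencies describe inhibitors; HT1080 fibrosarcoma cells; overnight exposure; toxic or luciferase-blocking compounds were not removed from the actives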
# WNV protease inh: inhibitors of WNV NS2B-NS3 protease, primary screen, biochemical, fluorogenic substrate. fluorogenic substrate Ex360/Em465; stronger effect = lower value. z-score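 (tested at a level between 10 and 100 µM)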. AID 577, 2007. Genome polyprotein (West Nile virus), P06935. actives 0.18% (n = 65,000);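 active = z-score at -3 or under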;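 note: score is relative to mean and spread of the compound wells of a plate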
# Target sequence (P06935 1371-1501 limits assumed): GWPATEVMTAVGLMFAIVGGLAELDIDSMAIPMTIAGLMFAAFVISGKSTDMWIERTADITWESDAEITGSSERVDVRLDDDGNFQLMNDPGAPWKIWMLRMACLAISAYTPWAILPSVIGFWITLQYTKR
# Target sequence (P06935 1502-1679 limits assumed): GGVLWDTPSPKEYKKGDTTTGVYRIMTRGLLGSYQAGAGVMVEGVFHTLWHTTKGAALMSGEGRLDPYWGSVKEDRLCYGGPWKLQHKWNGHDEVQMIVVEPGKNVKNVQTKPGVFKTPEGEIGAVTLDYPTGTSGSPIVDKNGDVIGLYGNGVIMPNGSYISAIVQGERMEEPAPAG
# Hsc70 ATP site: Hsc70 inhibitors, probe displacement, primary screen, biochemical, fluorescence polarization (AID 568); Heat shock cognate 71 kDa protein (Homo sapiens); Hsc70 fluorescence polarization, probe displacement; higher % means a stronger effect; strong numbers were not always called active; one-dose displacement, % at 20 µM; IC50 in µM for titrated hits; 83,000 tested, under 10 active;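 active = displacement above 50% without optical interference and an IC50 on retest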;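 note: ATPase domain with a fluorescein-tagged ATP probe; 0% = vehicle and 100% = excess ADP; read after one hour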
# The depositor's hits bear a star; i = inactive; . = no result given; + = active, no number.
SMILES,MT1-MMP promoter,WNV protease inh,Hsc70 ATP site
CCN(CC)S(=O)(=O)c1ccc2c(c1)c(=O)c(C(=O)NCCN(C)CCc1ccccc1)cn2C,i,0.24,-0.2%
CCOC(=O)C1=C(C)N(C)C(C)=C(C(=O)OCC)C1c1ccccn1,i,-0.35,-3.1%
CCn1c(Cc2c(C)[nH]c3ccccc23)nnc1SCC(=O)NCc1ccccc1,i,.,-0.4%
O=C(CCCCCn1c(=S)[nH]c2cc3c(cc2c1=O)OCO3)N1CCN(C(=O)c2ccco2)CC1,i,1.9,-5.5%
COC(=O)CSc1nsc(SCC(=O)OC)c1C#N,i,1.3,3.0%
Cc1c(C(=O)Nc2cccc3cccnc23)oc2ccccc12,i,0.05,-1.1%
O=C(O)c1cc(-c2ccc3c(c2)OCO3)nc2ccccc12,i,-1,1.1%
Nn1c(SCC(=O)NCc2ccccc2)nnc1C1CC1,i,-1.3,-4.8%
Cc1nn2c(NCC(C)C)c3c(nc2c1-c1ccccc1)CCC3,i,.,2.2%
CS(=O)(=O)Nc1ccccc1C(=O)c1ccccc1,i,1,-0.3%
COc1ccc(CNC(=O)C(c2cccs2)N(C(=O)c2csnn2)C2CC2)cc1 (stereo not given),i,0.73,3.8%
CCC(=O)N1CCN(c2ccc(Cl)cc2NC(=O)c2ccc(Br)o2)CC1,i,-0.83,1.1%
COc1ccccc1N1CCN(C(=O)c2ccc3nc(-c4ccco4)c(-c4ccco4)nc3c2)CC1,i,0.2,-1.2%
O=c1/c(=C/c2ccc(O)cc2)sc2n1CCCN=2,i,.,-4.2%
CCOC(=O)c1cccc(NC(=O)CCn2nnc3ccccc32)c1,i,-0.51,2.7%
Nc1ccc(Sc2nnnn2-c2ccccc2)c(Cl)c1,i,-0.59,-3.6%
O=C(NC1CCCC1)C1C2C=CC(C2)C1C(=O)N1CCOCC1 (stereo not given),i,-0.02,-4.3%
O=C(O)C1C2CCC(O2)C1C(=O)Nc1cccc(F)c1 (stereo not given),i,-0.28,-2.9%
COc1cc(Cl)cc(C#N)c1OCC(=O)O,i,-1.6,0.1%
CCOC(=O)Cc1csc(NC(=O)c2ccc(Br)s2)n1,i,1.3,0.9%
COCc1nnc(NC(=O)CCCCCN2C(=O)c3ccccc3C2=O)s1,i,0.33,-6.0%
Cc1ccc2c(c1)cc(CN(Cc1ccc3c(c1)OCO3)S(=O)(=O)c1ccccc1)c1nnnn12,i,-0.49,-12%
COc1ccc(Cc2nnc(-c3cccc(C)c3)o2)cc1OC,i,0.18,-3.4%
Cc1csc(NC(=O)Cn2cnnn2)n1,i,-0.43,-1.9%
COC(=O)c1ccc2c(=O)sc(N3CCC(C(N)=O)CC3)nc2c1,i,-0.99,-0.2%
COc1ccccc1N1C(=O)c2ccccc2NC1c1ccncc1 (stereo not given),i,-1.1,-1.3%
c1ccc(Cn2c(SCCN3CCOCC3)nnc2-c2cccnc2)cc1,i,-0.54,1.3%
CN(CCc1ccccn1)C(=O)CN(C)S(=O)(=O)c1ccc2c(c1)c(=O)n(C)c(=O)n2C,i,-1.1,1.4%
CC(C)[C@H](NC(=O)OC(C)(C)C)c1nnc(SCc2cccc(F)c2)o1,i,-1.2,6.2%
CCc1nnc(NC(=O)CSc2nnc(-c3ccccc3O)n2-c2ccc(C)cc2)s1,i,0.59,-4.1%
c1ccc(N2CCN(c3c4c(nc5ncnn35)CCC4)CC2)cc1,i,-0.34,4.1%
Cc1ccc(N(C(C)C(=O)O)S(=O)(=O)c2c(C)n[nH]c2C)cc1 (stereo not given),i,-0.83,-0.1%
COc1ccc(NC(=O)CN2CCN(CC(=O)Nc3ccccc3Cl)CC2)c(OC)c1,i,.,5.0%
O=C(CCn1cccc1)NCc1ccc2c(c1)OCO2,i,-0.07,8.8%
Cc1c(C(=O)N2CCN(c3ccccc3F)CC2)sc2ncn(CC(=O)N3CCOCC3)c(=O)c12,i,0.78,0.5%
CN1CCN(C(=O)c2cc(-c3cccc(Cl)c3)on2)CC1,i,-0.1,0.9%
COc1ccccc1NC1=C(C)C(=O)CC1,i,-1.1,-7.8%
CCC(=O)Oc1ccc2c(C)cc(=O)oc2c1C,i,1.3,-1.1%
O=C1CN(C(=O)OCc2ccccc2)c2ccccc2N1,i,-1.3,-9.2%
Cc1noc(C)c1C(=O)NCCc1ccc(Cl)cc1,i,-0.91,5.0%
CCOc1ccc(OCC(=O)Nc2ccc(S(=O)(=O)Nc3cc(C)nc(C)n3)cc2)cc1,i,-0.27,-1.7%
Cc1cccc(N(CC(=O)NCc2ccco2)C(=O)CCC(=O)Nc2ccccn2)c1,i,-0.27,-7.2%
CCN(CC)C(=O)CSc1ccccc1N,i,1.1,4.0%
CCCCc1ccc(C(=O)NC(C(=O)O)C(C)C)cc1 (stereo not given),i,-0.08,7.7%
Cc1ccc(N(C(C)C(=O)O)S(=O)(=O)c2c(C)[nH]c(=O)[nH]c2=O)cc1 (stereo not given),i,0.12,-0.5%
Cc1cc(C)n(-c2nc3c(c(=O)[nH]c(=O)n3C)n2CCc2ccccc2)n1,i,-0.4,-0.6%
Cc1cc2cc(CN(CCCN3CCOCC3)C(=O)NC3CCCCC3)c(=O)[nH]c2cc1C,i,-0.0048,1.1%
O=C(CN1CCN(C2CCCCC2)CC1)Nc1ccccc1N1CCCCC1,i,1.7,3.3%
CCc1ccc(NC(=O)c2cc(C)on2)cc1,i,-1.1,-1.6%
COc1cccc(OCC(O)CN2CC(C)CC(C)C2)c1 (stereo not given),i,0.23,-1.0%
COC(=O)c1cccc(NC(=O)C(C)N2C(=O)c3ccccc3C2=O)c1 (stereo not given),i,2.2,-2.4%
COc1ccc(O)c(-c2[nH]ncc2C(=O)c2ccccc2)c1,i,0.35,3.7%
CCCc1nc2sc3ccccc3c(=O)c2c(=O)n1CCOC,i,.,-0.3%
Cc1ccc(CSc2nc3ccccc3c(=O)n2CCCC(=O)NCc2ccco2)cc1,i,.,1.7%
COc1ccc2cc(CN(CC3CCCO3)S(=O)(=O)c3ccccc3)c(=O)[nH]c2c1 (stereo not given),i,.,4.2%
CS(=O)(=O)N1CCC(C(=O)O)CC1,i,.,-0.1%
Cc1ccc(C(c2nnnn2CS(=O)(=O)c2ccc(C)cc2)N2CCC(C)CC2)cc1 (stereo not given),i,.,-0.4%
Cc1cc(=O)n2nc(N3CCC(C(=O)NCCC4=CCCCC4)CC3)sc2n1,i,-0.33,-5.0%
CCN1C(=O)CC(NNC(=O)c2ccc(Cl)cc2)C1=O (stereo not given),i,.,0.6%
O=Cc1cn(CC(=O)NCC2CCCO2)c2ccccc12 (stereo not given),i,.,-3.6%

# 14 entries from above, reformatted.
# Under each structure: MT1-MMP promoter | WNV protease inh | Hsc70 ATP site
CCOc1ccc(OCC(=O)Nc2ccc(S(=O)(=O)Nc3cc(C)nc(C)n3)cc2)cc1
    i | -0.27 | -1.7%
Cc1cccc(N(CC(=O)NCc2ccco2)C(=O)CCC(=O)Nc2ccccn2)c1
    i | -0.27 | -7.2%
CCN(CC)C(=O)CSc1ccccc1N
    i | 1.1 | 4.0%
CCCCc1ccc(C(=O)NC(C(=O)O)C(C)C)cc1 (stereo not given)
    i | -0.08 | 7.7%
Cc1ccc(N(C(C)C(=O)O)S(=O)(=O)c2c(C)[nH]c(=O)[nH]c2=O)cc1 (stereo not given)
    i | 0.12 | -0.5%
Cc1cc(C)n(-c2nc3c(c(=O)[nH]c(=O)n3C)n2CCc2ccccc2)n1
    i | -0.4 | -0.6%
Cc1cc2cc(CN(CCCN3CCOCC3)C(=O)NC3CCCCC3)c(=O)[nH]c2cc1C
    i | -0.0048 | 1.1%
O=C(CN1CCN(C2CCCCC2)CC1)Nc1ccccc1N1CCCCC1
    i | 1.7 | 3.3%
CCc1ccc(NC(=O)c2cc(C)on2)cc1
    i | -1.1 | -1.6%
COc1cccc(OCC(O)CN2CC(C)CC(C)C2)c1 (stereo not given)
    i | 0.23 | -1.0%
COC(=O)c1cccc(NC(=O)C(C)N2C(=O)c3ccccc3C2=O)c1 (stereo not given)
    i | 2.2 | -2.4%
COc1ccc(O)c(-c2[nH]ncc2C(=O)c2ccccc2)c1
    i | 0.35 | 3.7%
CCCc1nc2sc3ccccc3c(=O)c2c(=O)n1CCOC
    i | . | -0.3%
Cc1ccc(CSc2nc3ccccc3c(=O)n2CCCC(=O)NCc2ccco2)cc1
    i | . | 1.7%

# Going on with the list.
SMILES,MT1-MMP promoter,WNV protease inh,Hsc70 ATP site
Cc1cccc(NC(=O)c2cc(=O)c3ccccc3o2)n1,i,.,-3.2%
CC1=NOC2(C1)/C(=N/O)CCC/C2=N\O (stereo not given),i,2.2,-5.2%
CCN1CCCC1CNC(=O)c1cc2c(C)nc3ccccc3c2o1 (stereo not given),i,-0.3,5.5%
CCCCC(=O)Nc1nn(C)c2nc3c(C)cccc3cc12,i,0.12,1.4%
CC(=O)NC(C)c1nc2ccccc2n1Cc1ccccc1F (stereo not given),i,0.74,-4.1%
CC(C)NC(=O)c1ccc2c(c1)N(CC(=O)N1CCOCC1)C(=O)C(C)(C)O2,i,-0.08,0.1%
COC(=O)c1cccc(NC(=O)CSc2nnc(COc3ccccc3)n2C)c1,i,0.6,1.2%
O=C(CCCC(=O)N(CC(=O)NC1CCCCC1)CC1CCCO1)Nc1ccccn1 (stereo not given),i,0.46,1.2%
O=C(N1CCN(c2ccccn2)CC1)N1c2ccccc2Sc2ccccc21,+,-0.43,-1.1%
Cc1nn(Cc2ccc(Cl)cc2Cl)c(C)c1NC(=O)c1nc2n(n1)C(C(F)F)CC(C)N2 (stereo not given),i,0.01,-6.4%
CC(=O)c1ccc(N2CCN(C(=O)CCS(=O)(=O)c3ccc(C)cc3)CC2)cc1,i,-0.17,1.7%
COc1ccc(N2C(=O)C3CCCN3C2c2ccc(C)cc2)cc1Cl (stereo not given),i,-1,1.8%
O=C(N1CCOCC1)N1CCN(c2nc(-c3ccccc3)cs2)CC1,i,0.98,-0.7%
CC(C)c1cc(C(=O)Nc2ccc3c(c2)OCO3)no1,i,0.83,3.0%
COc1ccc(CC(=O)Nc2oc(-c3ccccc3)c(-c3ccccc3)c2C#N)cc1OC,i,-1.2,-3.7%
O=C(CN1C(=O)c2ccccc2C1=O)OCC(=O)N1CCc2ccccc2C1,i,-1.1,2.7%
Cc1ccc(S(=O)(=O)Cc2sc3ccccc3[n+]2C)cc1,i,.,-0.4%
O=c1[nH]c2cc3c(cc2cc1CN(Cc1ccc2c(c1)OCO2)Cc1nnnn1CC1CCCO1)OCO3 (stereo not given),i,.,0.4%
Cc1cccc(N2CCN(S(=O)(=O)c3ccc(S(=O)(=O)N4CCCC4)cc3)CC2)c1C,i,.,-1.3%
Nc1ccccc1N1CCOCC1,i,.,-4.3%
CCOC(=O)CSc1nnc(-c2ccc(S(=O)(=O)N3CCC(C)CC3)cc2)o1,i,0.59,-2.5%
CC1(C)C2CCC13CS(=O)(=O)NC3C2 (stereo not given),i,.,-3.6%
CCOC(=O)Cc1csc(NC(=O)c2cc3c(s2)CCCC3)n1,i,.,0.6%
Cc1ccc(-c2nc(N)n(S(C)(=O)=O)n2)cc1,i,0.13,2.3%
CCOC(=O)C1CCN(C(=O)c2ccc3c(c2)OCO3)CC1,i,1,4.1%
CC1CCCC(C)N1C(=O)CN1C(=O)C(C)(C)Oc2ccc(C(=O)NC3CCCCC3)cc21 (stereo not given),i,-1.2,-1.7%
Nc1nc(SCC(=O)NCCCN2CCOCC2)nc2sc3c(c12)CCC3,i,-0.19,3.9%
CC(Sc1n[nH]c(N)n1)C(=O)C12CC3CC(CC(C3)C1)C2 (stereo not given),i,.,2.4%
CCC(C)Sc1nc2c(c(=O)[nH]c(=O)n2C)n1CC(O)COc1cccc2ccccc12 (stereo not given),i,-0.29,15%
CCC1SC(=NC(=O)c2ccc(Cl)c(Cl)c2)NC1=O (stereo not given),i,1.3,0.1%
Cc1csc(N2CCc3ccccc32)n1,i,0.14,-1.3%
Cc1ccc2c(c1)N(CCC(=O)NCC1COc3ccccc3O1)C(=O)CO2 (stereo not given),i,-0.53,1.5%
CCN(CC)C(=O)COc1cccc2ccccc12,i,-0.86,-0.7%
COc1ccc(-n2c(SCC(=O)Nc3cc(C)on3)nc3ccc(O)cc3c2=O)cc1OC,i,0.89,-3.4%
C=CCn1c(SCc2c(C)noc2C)nc2sc3c(c2c1=O)CCCC3,i,.,-1.2%
Cc1sc2ncn(CC(=O)NCCCC(=O)N3CCN(c4ncccn4)CC3)c(=O)c2c1C,i,-0.91,8.7%
CCCNC(=O)C1CCN(c2ccc(S(=O)(=O)N3CCOCC3)cc2Cl)CC1,i,.,3.3%
Cc1sc2ncn(CC(=O)NCC(=O)N(C)Cc3ccccc3)c(=O)c2c1C,i,.,-3.5%
Nc1cc(=O)[nH]c(SCc2cccc(Cl)c2)n1,i,0.67,-13%
CCCNC(=O)c1ccccc1NC(=O)C1COc2ccccc2O1 (stereo not given),i,.,-0.5%
O=C(Cc1c(C(=O)O)[nH]c2ccc(Cl)cc12)Nc1ccc2c(c1)OCCO2,i,1.7,5.5%
O=C(NCc1ccccc1)NC1(C(=O)Nc2ccc3c(c2)OCCO3)CCCCC1,i,1,1.0%
COc1ccc(N2CCN(Cc3ccc(Br)s3)CC2)cc1,i,.,-1.3%
Cc1ccc(S(=O)(=O)CCC(=O)OCC(=O)Nc2ncc(Cl)cc2Cl)cc1,i,0.86,13%
COC(=O)c1[nH]c2ccc(C)cc2c1NC(=O)CCN1CCN(C2CCCCC2)CC1,i,-1.2,-1.6%
